Cruzain inh noDet – qHTS Assay for Promiscuous and Specific Inhibitors of Cruzain (without detergent); purified cruzain, Z-FR-AMC fluorescence, no detergent; 200,000 compounds, 2.3% hits; Potency, µM, inactives show max response, negative = inhibition, most hits filed as inhibitors;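 further: plate controls were enzyme without inhibitor for no effect and buffer without enzyme for full effect; nearly all actives have a fitted effect of over 40% in size; top concentration of the series not given in the record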
Target sequence (P25779 123-467 limits assumed): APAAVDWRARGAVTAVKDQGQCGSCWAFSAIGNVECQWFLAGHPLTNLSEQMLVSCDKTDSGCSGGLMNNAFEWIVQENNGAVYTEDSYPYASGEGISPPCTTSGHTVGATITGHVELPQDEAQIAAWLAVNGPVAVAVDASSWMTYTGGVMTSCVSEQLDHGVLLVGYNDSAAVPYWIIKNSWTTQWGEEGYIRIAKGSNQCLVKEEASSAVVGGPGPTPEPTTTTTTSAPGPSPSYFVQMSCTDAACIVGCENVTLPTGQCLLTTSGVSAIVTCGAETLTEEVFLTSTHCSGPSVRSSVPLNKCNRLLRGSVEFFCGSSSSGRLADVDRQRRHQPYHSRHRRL
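Detergent-free condition (0.00005% Triton X-100) in acetate buffer pH 5.5 with DTT. 1.5 nM enzyme and compound were pre-mixed 15 min, then 2 uM Z-FR-AMC substrate added; reaction progress from fluorescence change between first and third reads (60 s).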
LASV entry inh – qHTS for Inhibitors of binding or entry into cells for Lassa Virus; Potency, µM (highest dose often 37.9 µM), without a hit: at the top dose activity change, negative = inhibition, hits mostly inhibitors; 300,000 compounds, 1.2% hits; Lassa virus pseudotype entry inhibition, cell reporter; control for the full effect not named in the record; active means well fitted inhibition curve with a large enough effect; inconclusive means small, poorly fitted or top-dose-only effect, or effect the other way; inactive means flat fitted curve, though single readings scatter; tested in HEK293 cells; further: on the % scale 0 is the no-effect control and ±100 the full control effect; nearly all actives have a fitted effect of over 50% in size; luciferase read-out
RE007 growth inh – qHTS Assay for Inhibitors of the HIV-1 protein Vpr; Potency, µM (doses to about 92.2 µM), for inactives: at the highest dose activity change, negative = less growth; 360,000 compounds, 0.21% hits; S. pombe RE007 Vpr strain, BacTiter-Glo ATP luminescence, 24 h; control for the full effect not named in the record; active = well fitted falling curve with a large enough effect; inconclusive = small, poorly fitted or top-dose-only effect; inactive = no such curve, though single readings can be large or run the other way;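 further: on the % scale 0 is the no-effect control and ±100 the full control effect; nearly all actives have a fitted effect of over 50% in size; the assay follows cell death caused by Vpr and the record does not say whether a fall means rescue or toxicity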
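Fission yeast RE007 carrying one integrated HIV-1 vpr copy, seeded at OD 0.01 in PMG+AL medium with 23 nL pinned compound. Grown 24 h at 30 degrees; viability read by BacTiter-Glo luminescence after 5 min.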
NS1 inh – qHTS Assay for Inhibitors of Influenza NS1 Protein Function; S. cerevisiae slowed by influenza A NS1, growth recovery by OD600; Potency, µM (titrated, usually from 46.1 µM), for the others: at the highest dose activity, positive = more growth; 270,000 compounds, 0.4% hits; active means well fitted rising curve with a large enough effect; inconclusive means small, poorly fitted or top-dose-only effect; inactive means no such curve, though single readings can be large or run the other way; further: nearly all actives have a fitted effect of over 50% in size
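OD600 was taken as the measure of yeast growth restored by compound in an NS1-expressing S. cerevisiae strain. Cells had been washed out of glucose medium and diluted 1:100 into galactose -URA medium, pH 6.0.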
Cruzain inh Det – qHTS Assay for Promiscuous and Specific Inhibitors of Cruzain (with detergent). purified cruzain, Z-FR-AMC fluorescence, 0.01% Triton. 200,000 compounds, 0.43% hits. Potency, µM, for inactives: max response, negative = inhibition, most hits filed as inhibitors. Cruzipain (Trypanosoma cruzi), P25779;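 further: plate controls were neutral wells for no effect and buffer without enzyme for full effect; nearly all actives have a fitted effect of over 40% in size; top concentration of the series not given in the record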
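Cruzain (1.5 nM) preincubated 15 min at RT with compound in 100 mM sodium acetate pH 5.5, 5 mM DTT, 0.01% Triton X-100. Reaction started with 2 uM Z-FR-AMC; AMC fluorescence (ex 360/em 450 nm) change over 60 s gave rate.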
MARV entry inh – qHTS for inhibitors of binding or entry into cells for Marburg Virus; Marburg virus pseudotyped entry inhibition, cell reporter; control for the full effect not named in the record; about a third of the inactives were read at about 46 µM; Potency, µM (highest dose often 37.8 µM), inactives show at the top dose activity change, negative = inhibition, usual class: inhibitors; 300,000 compounds, 1.8% hits; active = well fitted inhibition curve with a large enough effect; inconclusive = small, poorly fitted or top-dose-only effect, or effect the other way; inactive = flat fitted curve, though single readings scatter; tested in HEK293 cells; about a fifth of its hits are not listed in these tables; further: on the % scale 0 is the no-effect control and ±100 the full control effect; luciferase read-out
2A StopGo – High Throughput Screening for Foot and Mouth Disease Virus Antivirals. human cells with a luciferase reporter of 2A StopGo recoding; control for the full effect not named in the record. Potency, µM (titrated, usually from 57.9 µM), without a hit: top-dose signal change, negative = less light. 410,000 compounds, 1.2% hits. AID 1159524, 2015; active = well fitted falling curve with a large enough effect; inconclusive = small, poorly fitted or top-dose-only effect; inactive = no such curve, though single readings can be large or run the other way; tested in HEK293T cells; further: on the % scale 0 is the no-effect control and ±100 the full control effect; nearly all actives have a fitted effect of over 45% in size; luciferase light after 4 h
SARS PLpro yeast – qHTS of Yeast-based Assay for SARS-CoV PLP; S. cerevisiae expressing SARS-CoV PLpro, growth rescue; control for the full effect not named in the record; Potency, µM (series often up to 32.9 µM), inactives show top-dose activity, positive = growth rescue; 330,000 compounds, 0.19% hits; AID 485353, 2010; active means well fitted rising curve with a large enough effect; inconclusive means small, poorly fitted or top-dose-only effect; inactive means no such curve, though single readings can be large or run the other way; further: 0% is about no effect; nearly all actives have a fitted effect of over 55% in size; growth read by luminescence after 48 h
The depositor's hits bear a star; u = inconclusive; x = not tested or not shown; & = joins results of further samples; [ ] = dose if it differs, or a comment. Unless noted, the call rests on the fitted dose curve; in most records, active means well fitted curve in the direction sought with a large enough effect; inconclusive means small, poorly fitted or top-dose-only effect, or another doubt; inactive means no such curve, though single readings can be large; an effect the other way counts as inactive or inconclusive. Potency means the concentration at half of the fitted maximal effect.

Under each structure: Cruzain inh Det, Cruzain inh noDet, NS1 inh, LASV entry inh, 2A StopGo, SARS PLpro yeast, RE007 growth inh, MARV entry inh
> CS(=O)(=O)N(CC(=O)N1CCCCCC1)c1ccc2c(c1)OCCO2
  0.9%, -6%, 4%[9.22 µM], 7%, x, -3%, 19%, -16%
> O=C(CC1C(=O)NCCN1Cc1cccc(F)c1)NCCCN1CCCC1=O (stereo not drawn)
  x, x, 0%, 8%, -8%, x, 0%, 6%
> CCC(C)N(C(=O)CSc1nc(C)c(C)c(C)c1C#N)C1CCS(=O)(=O)C1 (stereo not drawn)
  x, x, x, -6%, -9%, -4%, -7%, 3%
> Cc1ccc(NS(=O)(=O)c2ccc3c(c2)oc(=O)n3C)cc1F
  0.4%, -1%, -22%, x, 1%, 1%, 6%, x
> Nc1ccc(-c2nnnn2-c2ccc(N)cc2)cc1
  x, x, 0%, 15%[46.1 µM], -10%, -5%, -3%, 13%[46.1 µM]
> CC1CCC(C(C)C)C(OC(=O)COC(=O)c2cc(O)ccc2N)C1 (stereo not drawn)
  -15%, 14%, u, u, u, -2%, -24%, u
> Cc1ccc(CNC(=O)C2=CCN(S(=O)(=O)c3ccc(C)cc3)CC2)cc1
  -6.7%, 7%, -1%, u, x, -4%, x, -12%
> CC(=O)OCC(=O)C1(O)CCC2C3CC(C)C4=CC(=O)C=CC4(C)C3=CCC21C (stereo not drawn)
  x, x, x, -9%[46.1 µM], -21%, x, -6%, -10%[46.1 µM]
> Cc1ccccc1S(=O)Cc1ccc(C(=O)NCc2ccccc2Cl)o1 (stereo not drawn)
  -8.7%, -3%, x, u, -21%, x, x, -1%[46.1 µM]
> COc1cc(C(=O)N2c3ccccc3CCC2C)cc(OC)c1OC (stereo not drawn)
  x, x, -13%, u, -26%, -1%, 2%, u
> O=C(Nc1cc(F)ccc1F)C1CCCN(c2ncnc3c2nc2n3CCCCC2)C1 (stereo not drawn)
  x, x, -34%, x, -28%, 0%, 5%, x
> O=C1COCC(=O)N1CCc1c[nH]c2ccccc12
  x, x, 6%, 0%, 24%, -2%, -11%, 3%[46.1 µM]
> COc1ccc(C(=O)NCCC(C)C)cc1S(=O)(=O)N1CCOCC1
  -0.9%, 11%, -4%, u, -6%, 3%, -1%, -21%&-21%
> Cc1oc(-c2cccs2)[n+]([O-])c1C
  4.9%, -5%, -30%, -1%, 16%, 6%, 9%, 14%
> Cc1ccc(C(C)C)c(OCc2ccc(C(=O)N/N=C/c3cccc(O)c3O)cc2)c1
  -4.5%, -74%, -32%, 12µM*, u, 2.8µM*, u, 7.3µM*
> CCN(CC)CCNC(=O)c1ccccc1C(=O)c1ncc[nH]1
  -5.3%, -12%, 5%, 2%, -12%, 1%, 2%, -11%[46.1 µM]
> Cc1cc(S(=O)(=O)Nc2ccccc2C(=O)O)ccc1Cl
  -1.9%, -2%, 8%, 9%, 47%[activator], -2%, -1%, -19%
> COc1cccc(NC(=S)NC2CC3CCCC(C2)N3C2CCCC2)c1 (stereo not drawn)
  x, x, -2%, x, -7%, 1%, 14%, x
> Cc1ccc(N2CC(NC(=O)c3ccc(S(=O)(=O)N4CCCC4)cc3)CC2=O)cc1 (stereo not drawn)
  0.3%, 8%, x, -4%[46.1 µM], -11%, x, x, x
> O=C(Cc1ccccc1)NNC(=S)Nc1ccccc1
  x, x, 4%, 0%[46.1 µM], 16%, 1%, -5%, -2%[46.1 µM]
> NC(=O)C1CCN(C(c2ccccc2F)c2nnnn2Cc2ccco2)CC1 (stereo not drawn)
  4.3%, 11%, 5%, -15%, 31%, -1%, -1%, -7%
> COc1cccc(-c2nc3c(c(=O)[nH]c(=O)n3Cc3ccccc3)n2CCO)c1OC(F)F
  x, x, 3%, u, -2%, -5%, 2%, -25%[46.1 µM]
> O=C(N/N=C/C(Cl)=C/c1ccccc1)c1ccncc1
  x, x, -1%, -11%, 20%, -3%, -15%, -3%[46.1 µM]
> CCOc1ccc(NC(=O)NCCCN2CCN(c3ccc(OC)cc3)CC2)cc1
  0.8%, -1%, x, -2%[46.1 µM], 0%, x, x, u
> Cc1ccc(NC(=S)NNS(=O)(=O)c2ccc3ccccc3c2)cc1Cl
  x, x, x, 3%[46.1 µM], -11%, -3%, -6%, 0%[46.1 µM]
> CC(C)c1ccc(O)c(NC(=O)c2cncc(Br)c2)c1
  -1.6%, -10%, -3%, -2%, 17%, -10%, 7%[3.69 µM], 9%
> N#CCCn1cc(C(=O)Nc2ccc(C(=O)O)cc2)c(-c2cc3ccccc3o2)n1
  x, x, 4%, 23%[46.1 µM], 13%, -1%, 5%, -2%[46.1 µM]
> O=C(CSc1nnc(-c2cccc(Cl)c2)o1)N1CCc2ccccc21
  -0.9%, 3%, x, 3%[46.1 µM], 10%, x, x, -1%[46.1 µM]
> O=C(Cn1cc(SCc2cccc(Cl)c2)c2ccccc21)N1CCCCCC1
  -5.0%, -24%, x, -26%[46.1 µM], 6%, x, x, x
> O=C(O)[C@H](Cc1ccccc1)N1Cc2ccccc2C1=O
  -1.3%, -27%, -2%, x, -17%, -1%, -4%, x
> O=C(Nc1ccccc1)c1cccc2c(Br)cccc12
  x, x, -5%, x, 20%, 0%, 1%, x
> CCOC(=O)c1c(C)c(C(=O)NCc2ccc(OC)cc2)c(C)n1C
  x, x, x, u, -9%, -1%, -2%, -6%[46.1 µM]
> Cc1cccc(-n2nc(C)c3c2NC2=C(C(=O)CCC2)C3c2ccccn2)c1 (stereo not drawn)
  x, x, x, -6%, -15%, -1%, -8%, 5%
> CN1C(C(=O)NCc2cccc(C(F)(F)F)c2)CC2Cn3c(nc4cc(Cl)c(Cl)cc43)C21 (stereo not drawn)
  x, x, -40%, x, -17%, 0%, 15%, x
> O=C(CCSc1nnc(-c2ccncc2)o1)Nc1ccccc1Cl
  10%, 3%, 1%, 15%, -2%, x, -19%, 16%
> CCOC(=O)c1ccc(NC(=O)CC2C(=O)N(c3ccccc3)C(=O)N2Cc2ccc(C)cc2)cc1 (stereo not drawn)
  -2.8%, 4%, x, -26%[46.1 µM], 16%, x, x, u
> COc1ccccc1S(=O)(=O)N1CCNC(=O)C1
  x, x, x, 0%, 3%, -6%, 6%, -10%
> COc1cc(C(=O)NCC(=O)N2CCN(S(=O)(=O)c3cc(C)ccc3C)CC2)cc(OC)c1OC
  x, x, 7%, x, -27%, 3%, 0%, x
> CCC(C)NCCCOc1ccc(Cl)cc1C(C)(C)C (stereo not drawn)
  -1.1%, 4%, -4%, 8%, -2%, 1%, x, u
> Cc1cc(=O)oc2cc(OCC(=O)OCC(=O)Nc3ccc(C(N)=O)cc3)ccc12
  x, x, 7%, 19%, -12%, 1%, -4%, 0%[46.1 µM]
> CCn1cc(CNCc2cn[nH]c2-c2cc3ccccc3o2)cn1
  x, x, 9%, 12%[46.1 µM], 2%, 1%, 343%, u
> COc1ccc(-c2c3c(nc4sc5c(Cl)nc(C)nc5c24)CCC3)cc1
  4.8%, -16%, -1%, 3%, u, 4%, -11%, 0%
> COc1ccc2c(C)cc(N3CCN(c4ccc(F)cc4)CC3)nc2c1
  -7.0%, -16%, -4%, 1%, x, -29%, -3%, u
> Cc1ccc(S(=O)(=O)NCCn2c(C)cc3ccccc32)cc1
  -9.3%, -26%, 4%, x, x, 4%, x, 1%
> CCCCCCn1c(N)c(C(=O)NCCN2CCOCC2)c2nc3ccccc3nc21
  -13%, u, -49%, u, 11µM*, -7%, 16%, u
> Cc1c(OCC(=O)NCC2CCC(C(=O)O)CC2)ccc2c3c(c(=O)oc12)CCC3 (stereo not drawn)
  x, x, 14%, x, 1%, -2%, -6%, x
> Cc1ccc2[nH]c3c(c2c1)CN(C(=O)CN(C)CC1OCCO1)CC3
  5.0%, -1%, -6%, -10%, -7%, -2%, -11%[3.69 µM], -2%
> Cc1nc2c(-c3ccc(Cl)cc3)cnn2c(N)c1-c1ccc(F)cc1
  x, x, 3%, x, 0.79µM*, 0%, -2%, x
> O=C1NCCCc2nc(Oc3ccccc3)sc21
  0.0%, -1%, -1%, 7%, 6%, 5%, -28%, 17%
> Cn1nccc1C(=O)N1CCN(c2cccc(Cl)c2)CC1
  x, x, -6%, x, 0%, -1%, 8%, x
> COC(=O)c1ccc(NC(=O)Nc2ccc(C)cc2)cc1
  -3.9%, -22%, -17%, 4%, 21%, -5%, -10%, 5%
> CCOC(=O)c1c(C)oc2ccc(N(C(=O)c3ccncc3)S(=O)(=O)c3ccc(Br)cc3)cc12
  -1.8%, -4%, x, -19%[46.1 µM], 19%, x, x, x
> Cc1ccc(CN2CCN(/N=C/c3cccs3)CC2)cc1
  -4.4%, -10%, u, 5%, -14%, u, -5%, 21%
> N#CCc1ccc(NC(=O)c2ccc(S(=O)(=O)N3CCOCC3)cc2)cc1
  x, x, 18%, -4%, -18%, -3%, -24%, 3%
> Cc1ccc(NC(=O)CSc2nc(-c3ccc(F)cc3)nc3c2Cc2c(CO)cnc(C)c2O3)cc1C
  -1.0%, 0%, x, 18%[46.1 µM], -19%, x, x, x
> CCC1ON(C(C)C)C2c3nc4ccccc4n3CC12 (stereo not drawn)
  x, x, u, x, -19%, 3%, 5%, x

The order is random; overall some 4.8% were active at least once.
